RecA splice inh – inhibitors of M. tuberculosis RecA intein splicing. AID 2221. inhibition, %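 (about 9 µM by stock and volumes)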. cell-free RecA intein splicing, fluorescence. P9WHJ3. 0.75% of 290,000 active; in the data active = inhibition above about 30%; inconclusive = no clear call, values can overlap the other calls;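 also: 0% = vehicle wells and 100% = reference inhibitor control wells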
Target sequence (P9WHJ3 whole entry, looked up, canonical isoform): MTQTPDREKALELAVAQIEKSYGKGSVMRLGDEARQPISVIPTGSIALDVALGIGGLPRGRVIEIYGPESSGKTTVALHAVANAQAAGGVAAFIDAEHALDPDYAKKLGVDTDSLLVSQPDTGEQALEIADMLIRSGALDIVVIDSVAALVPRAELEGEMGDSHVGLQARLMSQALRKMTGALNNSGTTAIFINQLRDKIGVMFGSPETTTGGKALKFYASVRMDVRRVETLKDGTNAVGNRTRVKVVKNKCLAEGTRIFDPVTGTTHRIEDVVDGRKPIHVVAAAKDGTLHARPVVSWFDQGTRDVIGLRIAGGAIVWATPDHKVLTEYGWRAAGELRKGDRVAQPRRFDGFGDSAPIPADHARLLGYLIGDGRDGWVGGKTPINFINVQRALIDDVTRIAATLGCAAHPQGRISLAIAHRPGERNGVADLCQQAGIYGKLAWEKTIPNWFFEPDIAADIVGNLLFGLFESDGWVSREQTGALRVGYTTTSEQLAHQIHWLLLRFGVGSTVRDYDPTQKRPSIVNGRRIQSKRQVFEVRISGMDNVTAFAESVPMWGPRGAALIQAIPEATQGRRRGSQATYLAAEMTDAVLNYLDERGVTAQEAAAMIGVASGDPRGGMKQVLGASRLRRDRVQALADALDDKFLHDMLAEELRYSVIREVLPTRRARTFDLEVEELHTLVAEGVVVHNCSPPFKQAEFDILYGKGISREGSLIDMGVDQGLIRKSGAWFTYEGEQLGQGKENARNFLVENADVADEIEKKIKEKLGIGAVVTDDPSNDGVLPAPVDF
Mtb betalactam – beta-lactam sensitization of Mtb H37Rv; M. tuberculosis H37Rv growth with meropenem, percent inhibition; hits of this screen are not shown here; inhibition, % at 25 µM; 0.27% of 330,000 active;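 active = about 74% or more and at least 40 points above the plate without the antibiotic, then above 30% in a dose series; inconclusive = first-round hits that could not be retested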;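 also: growth measured after seven days incubation then overnight dye step; 0% = bacteria only wells and 100% = bacteria with antibiotic; twin plates without the antibiotic show which effects depend on it; some results filed as inactive read as strong as hits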
Mtb H37Rv – M. tuberculosis H37Rv growth inhibitors, H37Rv strain (AID 1626); M. tuberculosis H37Rv growth inhibition; higher % means a stronger effect; inhibition, % at 10 µM; hits with a dose series show IC50 in µM; 0.95% of 220,000 active;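 active = confirmed in a dose series; inconclusive = inhibition above 80% but not taken into the dose series; inactive = below 80% or under 30% at every dose of the series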;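 also: bacteria incubated seven days before Alamar blue readout; 0% = bacteria only wells and 100% = bacteria with antibiotic wells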
Arbovirus anti – arbovirus infection inhibition | arbovirus infection cell-based antiviral screen | inhibition, % at 10 µM | 0.37% of 200,000 active | AID 1251;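 active = inhibition from about 30%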;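 also: bluetongue infection of BSR cells; cell survival read as ATP light after 72 h; 0% = infected wells without compound and 100% = uninfected wells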
YopH inh – YopH (Yersinia) phosphatase inhibition | fluorescence Ex485/Em525 | inhibition, %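 (about 10 µM by stock and volumes)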 | 0.16% of 140,000 active | AID 898;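 active = inhibition of 50% or more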;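 also: controls were vehicle for no effect and minimum signal wells for full effect; inactives centre near -20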
Arbovirus anti repeat – second read-out of Arbovirus anti, no call of its own (marks repeat the call); inhibition, %; measured here: 10K subset replicate screen; many hits read low in the repeat;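 first of two repeat runs on a subset; 0% = infected and 100% = uninfected wells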
Starred values were filed as active, the others as inactive; ? = inconclusive; / = not tested or not shown; & = joins results of further samples. Not all compounds are listed; count on the stated rates, not on these rows.

SMILES | RecA splice inh | Mtb betalactam | Mtb H37Rv | Arbovirus anti | YopH inh | others
O=C(NC1CCc2ccccc21)C12CN(Cc3ccccc3)CC1C(c1cccc([N+](=O)[O-])c1)=NO2 (configuration not stated) | 8.1 | -7 | 9% | 4 | -26
O=[N+]([O-])c1ccc(CSc2nc3ccccc3o2)cc1 | 0.9 | 7 | -2% | 5 | -34
COc1cccc(-c2ccc(SCC(=O)NCCc3ccccc3)nn2)c1 | 2.1 | 0 | 6% | 1 | /
CC(C)(C)c1cc(CN2CCCC(O)C2)c(O)c(C(C)(C)C)c1 (configuration not stated) | -2.2 | / | 14% | -39 | -21
CCN1CNC(=S)N(CCc2ccccc2)C1 | -0.4 | 1 | 1% | 14 | -13
OC(c1nc2ccccc2[nH]1)C(O)C(O)C(O)c1nc2ccccc2[nH]1 (configuration not stated) | 1.0 | 1 | 0% | / | /
CCOC(=O)c1c(NC(=O)COc2cccc3c2CCN(C)C3=O)sc2c1CCC2 | 4.2 | 60 | 32% | 9 | -29
COCCNc1nc(SCC(=O)N2CCN(c3ccccc3)CC2)nc2ccccc12 | 0.2 | -11 | -2% | -1 | 9
CC(C)(C)CC(=O)Nc1ccc(C(N)=O)cc1 | 2.1 | 5 | -4% | -9 | -25
COc1ccccc1/C=N/N1C(=O)c2cccc3cccc(c23)C1=O | -1.5 | 0 | 4% | 4 | /
CCOC(=O)c1sc(NC(=O)CN2C(=O)NC3(CCCCCCC3)C2=O)c(C(=O)OCC)c1C | -1.8 | 4 | 7% | / | /
Cc1ccc(C2C3=C(CCCC3=O)N=C3c4ccccc4C(=O)C32)cc1 (configuration not stated) | 1.1 | 1 | -8% | -9 | -21
C=CCN(C(=O)CNC(=O)c1ccco1)C(C(=O)NC1CCCCC1)c1ccc(OC)cc1 (configuration not stated) | -1.3 | -15 | 2% | 4 | -18
CCOC(=O)/C(C#N)=C\c1cc(C)n(-c2ccccc2)c1C | -4.1 | -6 | 8% | 0 | -9
Cc1ccccc1CNC(=O)C1CCN(c2nnc(N3CCCC3=O)s2)CC1 | 2.6 | 4 | / | / | /
Cc1c(C)c2ccc(OCC(=O)Nc3cccnc3)cc2oc1=O | -0.7 | -8 | / | / | /
COc1ccc(CC(=O)NNC(=S)Nc2ccccc2)cc1Br | 3.1 | 1 | -1% | 4 | -30
C/C(=N\NC(=S)NC(C)C)c1ccc(-n2ccnc2)cc1 | -3.8 | 9 | -1% | -15 | -4
CCNc1nc(Oc2ccc(=O)[nH]n2)nc(SC)n1 | 3.5 | -2 | 3% | -2 | -22
CCOC(=O)C1(Cc2ccccc2)CCN(Cc2cnn(CC)c2)CC1 | 0.0 | 4 | 8% | -9 | /
CC(C(=O)Nc1ccc(Cl)cc1Cl)N1C(=O)NC2(CCCC2)C1=O (configuration not stated) | -0.7 | 5 | / | / | /
Cc1onc(-c2ccccc2)c1C(=O)N1CCN(S(=O)(=O)c2ccc3c(c2)OCCO3)CC1 | -1.4 | -4 | -5% | -2 | -16
CCCSc1nc(C)c(CC(=O)O)c(=O)[nH]1 | -0.4 | -8 | -8% | -2 | -16
CC(C)Cn1ccc(=O)n(CC(C)C)c1=O | -0.4 | -1 | 4% | -3 | -28
CC(C)c1ccc(N2C(=NC(=O)C3CCCO3)SC3CS(=O)(=O)CC32)cc1 (configuration not stated) | 0.5 | -4 | / | / | /

Continued:
SMILES | RecA splice inh | Mtb betalactam | Mtb H37Rv | Arbovirus anti | YopH inh | others
O=C(CSc1nnc(CNC(=O)c2ccco2)o1)Nc1ccc(Br)cc1 | -0.9 | 2 | / | / | /
COc1ccc(C2=NS(=O)(=O)N(C)C(C(=O)N3CCc4ccccc4C3)=C2)cc1OC | 1.9 | -5 | / | / | /
CCOc1ccc2[nH]c(=O)c(CN(CCCN3CCOCC3)Cc3nnnn3Cc3ccc(OC)cc3)cc2c1 | -2.4 | -3 | 1% | -4 | /
O=C(NCCCO)Nc1ccc2nc(-c3ccco3)c(-c3ccco3)nc2c1 | / | -2 | / | 33* | 5
Cc1noc(C)c1COC(=O)c1cccc(S(=O)(=O)N2CCCCCC2)c1 | / | -8 | -2% | 3 | -17
O=C(COC(=O)c1cc[n+]([O-])cc1)Nc1ccccc1Sc1ccccc1 | -1.2 | -4 | 4% | 21 | /
CCOC(=O)CNC(=O)CN1C(=O)CC(c2ccccc2)S(=O)(=O)c2ccccc21 (configuration not stated) | 0.3 | -5 | -5% | 3 | /
Cn1c(Nc2cccc(Cl)c2)nc2ccccc21 | -1.4 | 4 | / | / | /
COc1cc(C2CC(c3cccs3)=NN2C(=O)CCl)ccc1OC(F)F (configuration not stated) | 80* | 98 | / | / | /
NNC(=O)c1ccc(CSc2n[nH]c(=O)[nH]c2=O)cc1 | 2.0 | 2 | -14% | / | /
CCn1cc(CNC(=O)c2ccc3nc(Cc4ccccc4F)oc3c2)cn1 | -0.9 | 0 | / | / | /
CCC1(c2ccccc2)NC(=O)N(CC(=O)Nc2cc(S(=O)(=O)N3CCCCC3)ccc2OC(C)C)C1=O (configuration not stated) | 3.8 | -6 | / | / | /
CCN1CCN(c2ccc(S(=O)(=O)N3CCCCC3)cc2NC(=O)c2cccc(C(F)(F)F)c2)CC1 | 0.7 | 3 | / | / | /
CN(C)S(=O)(=O)N1CCN(C(=O)N2CCOCC2)CC1 | -0.8 | 0 | -7% | 3 | -35
O=C(NC1CCCCC1)C1CCN(C(=O)c2ccccc2Cl)CC1 | 0.5 | -9 | / | / | /
Cc1cccc(NC(=O)C2CCN(S(=O)(=O)c3cccs3)CC2)c1 | -1.1 | ? | / | -6 | -5
COc1ccccc1NC(=S)NCCc1ccc(OC)c(OC)c1 | 1.0 | -4 | / | / | /
O=C(N/N=C/c1ccc([N+](=O)[O-])o1)c1cn(-c2ccccc2)nc1-c1ccc(Cl)cc1 | 4.9 | 13 | -1% | 0 | /
Clc1ccc(-n2nnnc2-c2ccccc2)cc1 | / | 5 | 1% | -2 | -18
Cn1cc(SCC(=O)NCC2CCCO2)c2ccccc21 (configuration not stated) | -1.2 | 2 | 0% | -6 | -11 | Arbovirus anti repeat=-2
CN(C)c1ccc(/C=N/NC(=O)c2ccc3c(c2)OCO3)cc1 | -38 | -2 | / | / | /
COc1ccccc1/C=N/NC1=NCCCCC1 | -2.3 | -2 | -4% | 1 | 29
Fc1ccc(CN2CCN(c3ncnc4scc(-c5ccccc5)c34)CC2)cc1 | 7.7 | 74 | / | / | /
CCCNC(=S)N(Cc1cc2cc(C)ccc2n2nnnc12)CC(C)(C)CN(C)C | 0.4 | 16 | / | / | /
O=C(COC(=O)c1c(F)cccc1F)NCCNC(=O)COC(=O)c1c(F)cccc1F | 0.6 | 4 | / | / | /

Going on with the list:
SMILES | RecA splice inh | Mtb betalactam | Mtb H37Rv | Arbovirus anti | YopH inh | others
O=C(N/N=C/c1cc2c3c(c1O)CCCN3CCC2)c1ccccc1O | 4.9 | / | 12% | -40 | -26
O=C(O)c1ccc(Cl)c(NCc2cccnc2)c1 | -0.5 | 1 | / | / | /
COc1ccc(OC)c(C(=O)c2oc3ccccc3c2NC(C)=O)c1 | 1.2 | ? | -5% | -11 | -41
COc1cc2[nH]cc(C(=O)NCc3ccccc3)c(=O)c2cc1OC | -0.1 | -12 | / | / | /
COc1ccc(/C(N)=N/OC(=O)c2ccc([N+](=O)[O-])c(C)c2)cc1OC | 1.3 | 5 | 11% | -3 | /
N=C1c2ccccc2CN1c1cccc([N+](=O)[O-])c1 | 0.9 | 0 | -1% | 16 | /
O=C(O)c1cc(-c2ccco2)nc2ccc(Br)cc12 | -0.5&-4.8 | 32&90 | 0%&47% | 30&7 | -36
c1ccc(Cc2noc(CN3CCN(CCOc4ccccc4)CC3)n2)cc1 | 2.7 | -10 | 7% | 2 | /
CCN1CCN(C(=O)C2=CC(c3ccc(OC)cc3)=NS(=O)(=O)N2C)CC1 | -0.2 | 1 | / | / | /
Cc1ccc(Cl)cc1N1CCN(S(=O)(=O)c2cc3c(cc2C)NC(=O)CO3)CC1 | 0.1 | 1 | / | / | /
Cc1cc(C(=O)CN2CCCC2)c(C)n1-c1ccc(F)cc1 | 1.1 | -1 | 0% | / | /
Cc1ccc(NCc2ccc(O)c3ncccc23)cc1 | -4.6 | 78 | -4% | -2 | /
CN(C)CCN1CC(C(=O)O)CC1=O (configuration not stated) | -1.4 | -5 | -2% | 4 | 3
CCN(CC)c1ccc(/C=N/Nc2nc(C)cc(=O)[nH]2)c(O)c1 | 39* | 7 | 0% | -38 | -17
CC(C)C(=O)Nc1ccc(C(=O)c2ccccc2)cc1 | -1.9 | -7 | 2% | -21 | 36
Cc1c(NC(=O)c2cc3nc(-c4ccc(Br)cc4)cc(C(F)(F)F)n3n2)c(=O)n(-c2ccccc2)n1C | 1.0 | 8 | -8% | -19 | 3
Cc1cc(NS(=O)(=O)c2ccc(NC(=O)CCCOc3ccccc3C)cc2)nc(C)n1 | 2.2 | -2 | / | / | /
O=C(Nc1nc2cc(Cl)ccc2s1)C1CCCN(S(=O)(=O)c2cccc3cccnc23)C1 (configuration not stated) | -0.4 | -3 | ? | 13 | -37
CCc1cc(=O)oc2cc(C)c(CN3CCCC3)c(O)c12 | -5.1 | 32 | -13% | 4 | -40
Cc1nc(NC(=O)c2ccc(OCC(C)C)cc2)sc1Cc1ccc2c(c1)OCO2 | -2.1 | -2 | 6% | -19 | /
CCCNC(=O)CN1C(=O)NC(CCc2ccccc2)C1=O (configuration not stated) | -1.4 | -4 | -6% | 17 | /
C=CCn1c(CCNC(=O)C(C)(C)C)nc2ccccc21 | 1.2 | -4 | -8% | 2 | -34 | Arbovirus anti repeat=3
Nc1c(Cl)cc(-c2csc(NCCc3nc4cc(Cl)c(Cl)cc4n3CCCO)n2)cc1Cl | 3.8 | 73 | / | / | /
CN(C)c1cccc2cccc(N(C)C)c12 | / | -5 | -9% | / | /
COc1ccc(NC(=O)Nc2nc3c(s2)CCCC3)cc1 | 2.2 | 9 | 2% | 14 | -30
CCn1cc(C(=O)O)c(=O)c2cc(F)c(N3CCNCC3)cc21 | -2.8 | 100 | 2.8µM* | 1 | -13
CC(=O)c1ccc(N2CCCCCC2)c(F)c1 | 0.9 | 9 | 4% | -1 | -50
O=c1cc[nH]c2c(Cl)cccc12 | -2.6 | -4 | -13% | / | /
Cc1ccc(C)c(N2CCN(C(=O)c3ccc4c(c3)c(C)c(C)n4C)CC2)c1 | -1.8 | 80 | / | / | /
CCOc1ccc(NC(=O)CCn2c(=O)[nH]c3ccsc3c2=O)cc1 | -1.0 | -4 | -8% | 2 | 8

Entries from the list above containing an aryl methoxy group:
SMILES | RecA splice inh | Mtb betalactam | Mtb H37Rv | Arbovirus anti | YopH inh | others
COc1cccc(-c2ccc(SCC(=O)NCCc3ccccc3)nn2)c1 | 2.1 | 0 | 6% | 1 | /
COc1ccccc1/C=N/N1C(=O)c2cccc3cccc(c23)C1=O | -1.5 | 0 | 4% | 4 | /
C=CCN(C(=O)CNC(=O)c1ccco1)C(C(=O)NC1CCCCC1)c1ccc(OC)cc1 (configuration not stated) | -1.3 | -15 | 2% | 4 | -18
COc1ccc(CC(=O)NNC(=S)Nc2ccccc2)cc1Br | 3.1 | 1 | -1% | 4 | -30
COc1ccc(C2=NS(=O)(=O)N(C)C(C(=O)N3CCc4ccccc4C3)=C2)cc1OC | 1.9 | -5 | / | / | /
CCOc1ccc2[nH]c(=O)c(CN(CCCN3CCOCC3)Cc3nnnn3Cc3ccc(OC)cc3)cc2c1 | -2.4 | -3 | 1% | -4 | /
COc1cc(C2CC(c3cccs3)=NN2C(=O)CCl)ccc1OC(F)F (configuration not stated) | 80* | 98 | / | / | /
COc1ccccc1NC(=S)NCCc1ccc(OC)c(OC)c1 | 1.0 | -4 | / | / | /
COc1ccccc1/C=N/NC1=NCCCCC1 | -2.3 | -2 | -4% | 1 | 29
COc1ccc(OC)c(C(=O)c2oc3ccccc3c2NC(C)=O)c1 | 1.2 | ? | -5% | -11 | -41
COc1cc2[nH]cc(C(=O)NCc3ccccc3)c(=O)c2cc1OC | -0.1 | -12 | / | / | /
COc1ccc(/C(N)=N/OC(=O)c2ccc([N+](=O)[O-])c(C)c2)cc1OC | 1.3 | 5 | 11% | -3 | /
CCN1CCN(C(=O)C2=CC(c3ccc(OC)cc3)=NS(=O)(=O)N2C)CC1 | -0.2 | 1 | / | / | /
COc1ccc(NC(=O)Nc2nc3c(s2)CCCC3)cc1 | 2.2 | 9 | 2% | 14 | -30

Bioassay records (PubChem)
